UCH37 DUB inh = blocks the human deubiquitinase UCH37 | inhibition, % (no concentration beside the values) | purified proteasome/UCH37, Ub-AMC cleavage fluorescence | Q9Y5K5 | hit rate 0.33% among 330,000;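 active means mean of two replicates above 20%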;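 further: 0% = compound-free wells with enzyme and 100% = wells lacking proteasome; stock transfer was 100 nL into about 20 µL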
Target sequence (Q9Y5K5 whole entry, looked up): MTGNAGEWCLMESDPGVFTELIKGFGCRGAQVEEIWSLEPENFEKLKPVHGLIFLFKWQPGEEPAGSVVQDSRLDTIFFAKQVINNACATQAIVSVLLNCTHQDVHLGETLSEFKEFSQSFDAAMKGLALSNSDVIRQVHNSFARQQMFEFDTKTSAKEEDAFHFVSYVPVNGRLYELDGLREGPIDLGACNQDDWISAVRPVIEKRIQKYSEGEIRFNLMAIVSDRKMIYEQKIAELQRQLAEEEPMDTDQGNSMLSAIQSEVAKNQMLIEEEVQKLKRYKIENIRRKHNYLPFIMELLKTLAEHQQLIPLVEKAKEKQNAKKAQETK
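Material: human UCH37 enzyme supplied as purified proteasome complex / Amount: 0.15 nM proteasome as dispensed / Buffer or medium: pH 7.4 Tris-HCl (50 mM) with ovalbumin, ATP-MgCl2, DTT / Times: preincubation 30 min, reaction 25 min, room temperature / Technique: AMC fluorescence from Ub-AMC cleavage, excitation 355 nm, emission 460 nm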
LANA-H2B inh = blocks KSHV LANA binding to histone H2A/H2B; Q9QR71; cell-free LANA-H2A/H2B peptide, fluorescence polarization; inhibition, % (concentration not given with the values); hit rate 0.6% among 320,000; AID 2629; in the data active means inhibition mostly above about 10%, no sharp cut-off; inactive means mostly below about 6.7%;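 further: stock transfer was 7.5 nL into about 10 µL; 0% = median of vehicle wells and 100% = median of positive control wells; one replicate is shown; the record names a cut of 25% in any replicate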
Bfl-1 A1 inh = inhibitors of the anti-apoptotic protein A1, read as caspase activation; caspase activation, % (concentration not given with the values); hit rate 0.066% among 330,000; MEF A1-2A-BIM cells, Caspase-Glo 3/7 luminescence, 3 h; percent of clofoctol response, vehicle zero;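 active means over half of replicate activation scores above 10%, or exactly half above 10 with the replicate mean above 10; inconclusive means replicate mean below 10 yet half the replicates above 10; inactive means over half of replicates below 10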;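 further: wells of about 30 µL received 50 nL stock; many hits fall short of the cut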
Beta2AR agonist = activates human beta-2 adrenergic receptor causing internalization | P07550 | Am2.2-beta2AR cells, FAP receptor internalization, flow cytometry; reference of the scale not given here | response, % (no concentration beside the values) | hit rate 0.43% among 340,000 | AID 504454;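 active means response above a set limit, near 3 SD of response in nonfluorescent compounds, cut at about 42% in these data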;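 further: stock transfer was 100 nL into about 11 µL; a reference agonist was the positive control; negative values mostly stem from fluorescent compounds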
Target sequence (P07550 whole entry, looked up): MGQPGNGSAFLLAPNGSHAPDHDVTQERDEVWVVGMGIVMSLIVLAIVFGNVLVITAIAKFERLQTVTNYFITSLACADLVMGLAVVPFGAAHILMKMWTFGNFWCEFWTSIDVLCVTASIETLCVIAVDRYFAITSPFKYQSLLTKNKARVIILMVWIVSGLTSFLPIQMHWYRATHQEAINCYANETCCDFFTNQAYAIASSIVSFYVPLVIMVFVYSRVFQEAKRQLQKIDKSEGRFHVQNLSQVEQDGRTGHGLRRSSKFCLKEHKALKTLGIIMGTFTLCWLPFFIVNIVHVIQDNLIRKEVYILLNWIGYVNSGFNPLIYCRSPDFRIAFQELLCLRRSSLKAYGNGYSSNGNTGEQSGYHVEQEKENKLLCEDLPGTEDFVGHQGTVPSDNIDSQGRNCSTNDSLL
Beta cell apopt = beta cell apoptosis inhibition | hit rate 0.8% among 300,000 | AID 435005 | protection from apoptosis, % (concentration not given with the values) | INS-1E cytokine-induced death, ATP luminescence, 48 h; percent of positive-control rescue, neutral wells zero;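 active means all replicates at 75% or more, or half of them and the mean; inconclusive means half reach 75% but not the mean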;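 further: 0% = cytokine-treated negative control wells and 100% = positive control rescue; higher means more ATP so stronger rescue from cytokine killing; wells of about 40 µL received 100 nL stock; the first replicate is given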
T cruzi inh = T. cruzi replication inhibition. T. cruzi beta-gal in NIH3T3, luminescence, 90 h. inhibition, % (concentration not given with the values). hit rate 1.4% among 300,000;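 active means mean inhibition across valid replicates above about 55%, limit read from the data; inconclusive means mean below that limit but half or more replicates reach it; inactive means mean below it, under half of replicates reach it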;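 further: signal also drops with host cell toxicity which is not excluded here; 0% = plate median of DMSO wells and 100% = zero luminescence signal; higher percent means less beta-gal luminescence so fewer parasites; stock transfer was 50 nL into about 50 µL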
RanGTP-Imp inh = disruptors of Ran-importin-beta complex formation – biochemical, FRET, CFP-Ran, YFP-importin-beta, homogeneous, primary screen; cell-free CFP-Ran/YFP-importin-beta FRET ratio; hit rate 1.1% among 300,000; inhibition, % (no concentration beside the values);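 active means most replicates above 15%; inconclusive means exactly half above 15%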;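 further: 0% = DMSO wells and 100% = Ran loaded with GDP instead of GTP; wells of about 40 µL received 100 nL stock; the first replicate is given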
Calb FLC = affects C. albicans growth with fluconazole | C. albicans CaCi-2 (fluconazole-resistant clinical isolate) + fluconazole, Alamar Blue growth, 48 h | growth inhibition, % (test concentration not listed) | hit rate 0.57% among 300,000 | AID 1979;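 active means most replicates above 75%; inconclusive means exactly half above 75%; inactive means most below 75%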;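 further: all wells also contain fluconazole at 8 µg/ml as a sub-toxic cotreatment; 0% = median of DMSO wells and 100% = median of geldanamycin control wells; wells of about 8 µL received 7.5 nL stock; the first replicate is given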
Numbers without * were called inactive; ? = inconclusive; . = no result given; + = active, no number. This is a random part of the collection. Share with any hit: about 4.3%.

SMILES	UCH37 DUB inh	LANA-H2B inh	Bfl-1 A1 inh	Beta2AR agonist	Beta cell apopt	T cruzi inh	RanGTP-Imp inh	Calb FLC
COc1ccc(CNC(=O)[C@@H](NC(=O)C2CCN(C(=O)[C@@H](N)CC(C)C)CC2)C(C)C)cc1	2.5	-3.4	0.8	-6	2	-6	0.1	-10
CCN(C(=O)COC(=O)CNC(=O)c1ccccc1C)C1=CCCCC1	1.5	3.8	1.4	1	-2	.	.	.
CCC1=[N+](C)CCn2c(C)ccc21	0.8	-3.1	0.2	-3	-2	-12	0.0	-1
CCOC(=O)NC(=S)Nc1ccc(OC)cc1	3.2	-2.8	0.7	-4	-3	0	-3.0	12
CC(=O)Nc1cc2c(cc1C(C)=O)OCCO2	-17	0.2	-0.7	-3	-1	-12	5.4	13
O=C(O)c1ccc(/C=N/Nc2ncc(Cl)cc2Cl)cc1	.	-4.0	-7.7	3	1	-11	-0.5	-6
O=C(NNc1ccc([N+](=O)[O-])cc1)C1C2CCCCC21 (configuration not stated)	-4.3	-0.1	0.8	4	-5	-5	2.2	-34
O=C(COc1nc2ccccc2nc1N1CCOCC1)Nc1ccc(S(=O)(=O)N2CCCC2)cc1	2.3	2.8	-1.0	-9	-7	0	0.2	2
Cc1cc(C)c(S(=O)(=O)N2CCCCC2CCNC(=O)C(=O)NCc2cccnc2)c(C)c1 (configuration not stated)	.	-11	0.4	-5	6	10	4.8	-2
COc1cc(NC(=O)c2cc(C(C)C)on2)c(OC)cc1Cl	-0.2	4.1	-0.7	6	8	-10	-2.4	1
CC(C)CC(=O)N=Nc1c(O)[nH]c2ccccc12	9.5	0.8	-0.2	-2	-2	4	-0.3	-7
CCOC(=O)C1CCN(C(=S)Nc2cccc(C)c2)CC1	2.5	-0.6	0.1	-12	-4	-13	-0.2	14
COCCCNC(=O)CNC(=O)c1nn(-c2ccc(OC)cc2OC)c(=O)c2ccccc12	1.0	-1.0	-0.2	2	-1	13	3.4	-4
CCN(C[C@H]1N[C@@](CC)(C(=O)OC)[C@H]2C(=O)N(Cc3ccccc3)C(=O)[C@@H]12)C(=O)Nc1ccc(C(F)(F)F)cc1	.	+	-0.8	-1	-8	.	.	.
Cc1onc(-c2ccccc2Cl)c1C(=O)N1CCN(C/C=C/c2ccccc2)CC1	3.6	0.1	0.0	-4	-1	-12	4.9	-12
COc1ccc(/C=N/NC(=O)C2C(=O)NCC2c2ccccc2)c(OC)c1 (configuration not stated)	.	-0.5	0.9	6	-4	-4	0.9	46
CC1(C)CC(NC(=O)c2ccccc2)CC(C)(C)N1	1.4	-9.5	0.5	-3	-9	-1	-2.3	-9
C/C(=N\NC(=O)c1cnccn1)c1ccc([N+](=O)[O-])cc1	.	-3.6	0.6	1	.	-17	-0.5	-3
O=C(Cn1cnc2ccccc21)c1ccc(Cl)cc1	1.6	3.4	0.4	3	-1	8	2.6	-73
O=C(CN(Cc1cccs1)C(=O)CSc1nnc(COc2ccccc2)o1)NC1CCCC1	2.4	-0.1	1.2	-2	4	9	-2.3	-5
CCOc1ccc(N(C)c2ccc(/C=C3/SC(=S)NC3=O)cc2)cc1	.	-4.8	-0.4	-41	1	6	-16	13
CCN(CC)CCN1C(=O)C(O)=C(C(=O)c2cc3cccc(OC)c3o2)C1c1cccs1 (configuration not stated)	8.3	4.2	1.1	.	0	-19	2.5	-6
NC(=O)CCS(=O)(=O)CCN1CCN(S(=O)(=O)c2ccc3c(c2)CCC3)CC1	-2.8	1.1	1.1	-4	-2	.	.	.
COc1ccccc1CNC(=O)/C=C/C(=O)O	-2.4	-1.4	0.4	2	-2	-31	3.1	-5
CN(CC(=O)Nc1ccc(F)cc1)C(=O)COC(=O)Cc1c(F)cccc1Cl	-0.2	-3.3	0.3	13	-1	-3	-0.5	-10
CCCCCCCC(=O)N1c2ccccc2NC(=O)C1CC(=O)Nc1ccc(C(=O)O)cc1 (configuration not stated)	1.7	2.7	0.6	1	-2	6	2.2	1
CN1C(=O)c2cccc(NC(=O)C3CCCCC3)c2C1=O	-83	1.9	-1.1	-12	-4	-9	1.2	2
CCCC(c1nnnn1CS(=O)(=O)c1ccc(C)cc1)N1CCC(C(N)=O)CC1 (configuration not stated)	6.4	-1.1	0.8	12	-4	-6	-2.4	5
COc1ccccc1NC(=O)C(C/C=C(\C)Cl)C(C)=O (configuration not stated)	2.6	-2.4	-0.2	6	-8	12	2.0	27
COc1ccc2c(c1)c1ncn(CCN3CCCC3)c(=O)c1n2C	-251	1.7	0.7	-4	-8	23	1.9	1
Cc1cccc(NS(=O)(=O)c2cc(C(=O)N3CCc4ccccc4C3)ccc2Cl)c1C	0.9	-6.4	-0.1	0	10	60*	?	2
COc1ccc(CN2C(=O)C(C)N(C(=O)c3c(F)cccc3F)c3ccccc32)cc1 (configuration not stated)	6.9	6.7	0.7	-1	2	28	-1.6	11
NC(=O)C1CCN(Cc2nc(-c3cccs3)no2)CC1	2.5	4.7	-1.2	4	-3	-21	3.6	-7
COc1ccccc1C1/C(=C(/O)c2ccc(C)cc2)C(=O)C(=O)N1Cc1ccco1 (configuration not stated)	2.9	0.3	0.0	4	7	-3	-0.2	55
Cc1nnc(SCc2ccccc2CSc2nnc(C)s2)s1	1.0	-3.9	0.3	-11	1	1	?	9
CCO[C@@H]1OC(C(=O)NCc2nc3ccccc3[nH]2)=C[C@H](c2coc3ccccc3c2=O)[C@H]1CCCO	2.1	0.4	-0.2	-16	5	19	5.4	0
CN1CCN(C(=O)CN(Cc2ccccc2)S(C)(=O)=O)CC1	5.0	-2.9	0.4	-4	3	-8	-0.3	-28
O=c1oc2ccccc2c(Nc2cccc3cccnc23)c1[N+](=O)[O-]	3.1	1.4	-1.6	0	.	5	-6.0	-1
C=CC[C@@H](CC(=O)N[C@@H](CO)Cc1ccccc1)C(=O)N[C@@H](COC(=O)[C@@H](CC=C)CC(=O)OC(C)(C)C)Cc1c[nH]c2ccccc12	3.6	.	-0.4	10	-5	.	.	.
CN(CC(=O)Nc1ccccc1Cl)C(=O)COC(=O)c1ccc([N+](=O)[O-])s1	76*	0.7	-0.4	10	11	.	.	.

Compound profiles (already shown). Values in the order: UCH37 DUB inh	LANA-H2B inh	Bfl-1 A1 inh	Beta2AR agonist	Beta cell apopt	T cruzi inh	RanGTP-Imp inh	Calb FLC
Cc1cccc(NS(=O)(=O)c2cc(C(=O)N3CCc4ccccc4C3)ccc2Cl)c1C in the list: 0.9	-6.4	-0.1	0	10	60*	?	2
CC1(C)CC(NC(=O)c2ccccc2)CC(C)(C)N1 in the list: 1.4	-9.5	0.5	-3	-9	-1	-2.3	-9
O=C(NNc1ccc([N+](=O)[O-])cc1)C1C2CCCCC21 (configuration not stated) in the list: -4.3	-0.1	0.8	4	-5	-5	2.2	-34
CCOc1ccc(N(C)c2ccc(/C=C3/SC(=S)NC3=O)cc2)cc1 in the list: .	-4.8	-0.4	-41	1	6	-16	13
CC(C)CC(=O)N=Nc1c(O)[nH]c2ccccc12 in the list: 9.5	0.8	-0.2	-2	-2	4	-0.3	-7

(listing goes on)
SMILES	UCH37 DUB inh	LANA-H2B inh	Bfl-1 A1 inh	Beta2AR agonist	Beta cell apopt	T cruzi inh	RanGTP-Imp inh	Calb FLC
CC(=O)N/C(=C\c1ccccc1)C(=O)N1CCOCC1	5.2	3.6	0.1	8	-4	-9	4.2	5
Cn1nnnc1SCC(=O)Nc1ccccc1N1CCOCC1	-0.2	-4.5	2.1	-2	-4	-15	6.2	4
CCNC(=O)COC(=O)c1cc(-c2ccco2)nc2ccccc12	-220	1.4	0.2	-8	-3	-17	-6.1	26
Cc1nc2ccc(NC(=O)c3ccc(Cl)c(NC(=O)c4cccs4)c3)cc2s1	3.6	-1.8	1.3	16	9	4	1.1	-8
COCCNc1oc(-c2ccccc2Cl)nc1C#N	-14	-2.5	-1.0	-1	-1	-15	-7.3	8
CN(C)c1nccc(Nc2ccccc2)c1C#N	0.2	-0.4	0.0	-3	-5	3	0.7	4
CCC(C)Nc1ncnc2c1cnn2Cc1ccc(Cl)cc1 (configuration not stated)	5.3	-0.9	0.1	4	-2	7	2.0	-13
O=S(=O)(Nc1ccc(Cc2ccncc2)cc1)c1ccc(Cl)cc1	1.6	1.3	-0.3	-17	15	-4	6.6	25
O=c1cc(C23CC4CC(CC(C4)C2)C3)[nH][nH]1	4.4	2.8	0.2	-2	.	8	-0.7	10
Cc1ccc(C)c(CN2CCCN(C(=O)Cn3ncc4c3-c3ccccc3OC4)C2)c1	1.8	-0.6	-0.4	4	-1	25	4.7	7
COc1cc(O)c(C(CCN2CCCCC2)c2cc(OC)c(OC)c(OC)c2)c(OC)c1 (configuration not stated)	0.8	3.6	-0.1	0	-1	-2	0.3	-8
COC(=O)N1CCN(c2ccc(C)c(C)c2)CC1	1.8	.	-1.1	.	1	-13	4.9	24
Cc1cc(C)cc(OCC(=O)Nc2cnn(CCCC(=O)O)c2)c1	3.4	1.7	-0.1	3	-6	-17	?	-12
COc1ccc(-c2[nH]c(-c3cc(OC)c4c(c3)OCO4)nc2-c2ccccc2)cc1	-120	-10	-0.1	0	8	46	1.1	29
Cc1onc(-c2ccccc2)c1-c1nnc(CN2CCN(S(=O)(=O)c3ccccc3F)CC2)o1	1.5	-1.4	-0.7	4	11	.	.	.
CCC(NS(=O)(=O)c1ccc(C)cc1)C(=O)N1CCOCCOCCOCC1 (configuration not stated)	3.1	3.4	0.4	3	-2	-4	-5.1	-9
Cc1ccccc1CN(C)C(=O)c1ccc2ccccc2n1	5.6	3.8	-0.4	-2	-5	-12	0.1	-1
O=C1CCCN2N=C(SCC(=O)Nc3cccc(C(F)(F)F)c3)SC2=N1	0.8	-5.9	-1.5	0	-1	1	0.1	-8
CCCCOC(=O)c1ccc(Nc2ncnc3nc[nH]c23)cc1	-16	-4.6	-4.4	-1	4	21	-1.7	1
O=C(CN1CCN(S(=O)(=O)N2CCCCC2)CC1)Nc1ccc(Cl)c(Cl)c1	3.0	45*	-1.8	2	5	-4	-4.2	2
N#CC1(Cc2ccccc2Cl)c2ccccc2C=CN1C(=O)c1ccccc1 (configuration not stated)	1.5	3.6	-1.0	11	-2	21	0.4	-6
Cc1c(Cl)c([N+](=O)[O-])nn1CCCC(=O)N1CCN(c2ccccc2)CC1	2.9	-5.0	0.1	3	.	31	-3.1	20
COc1ccc(NC(=S)Nc2ccccc2SC)c(OC)c1	.	4.0	0.0	-3	2	-29	5.0	21
O=C(N/N=C\c1ccc(Cl)s1)c1cccs1	.	1.0	-0.1	0	8	-11	0.2	-4
CCN1CCc2c(sc(NC(=O)c3ccc(S(=O)(=O)N4CC(C)OC(C)C4)cc3)c2C(N)=O)C1 (configuration not stated)	.	0.5	-0.1	20	-5	16	28*	23
O=C(O)CCCC(=O)Nc1ccccc1Oc1ccccc1	4.7	4.6	1.1	-6	2	-7	1.7	-5
